# Beta2AR agonist: human beta-2 adrenergic receptor agonism by FAP; P07550; Am2.2-beta2AR cells, FAP receptor internalization, flow cytometry; reference of the scale not given here; response, % (test concentration not listed); hit rate 0.43% among 340,000; AID 504454;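 active means response above a set limit, near 3 SD of response in nonfluorescent compounds, cut at about 42% in these data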;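 further: stock transfer was 100 nL into about 11 µL; a reference agonist was the positive control; negative values mostly stem from fluorescent compounds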
# Target sequence (P07550 whole entry, looked up): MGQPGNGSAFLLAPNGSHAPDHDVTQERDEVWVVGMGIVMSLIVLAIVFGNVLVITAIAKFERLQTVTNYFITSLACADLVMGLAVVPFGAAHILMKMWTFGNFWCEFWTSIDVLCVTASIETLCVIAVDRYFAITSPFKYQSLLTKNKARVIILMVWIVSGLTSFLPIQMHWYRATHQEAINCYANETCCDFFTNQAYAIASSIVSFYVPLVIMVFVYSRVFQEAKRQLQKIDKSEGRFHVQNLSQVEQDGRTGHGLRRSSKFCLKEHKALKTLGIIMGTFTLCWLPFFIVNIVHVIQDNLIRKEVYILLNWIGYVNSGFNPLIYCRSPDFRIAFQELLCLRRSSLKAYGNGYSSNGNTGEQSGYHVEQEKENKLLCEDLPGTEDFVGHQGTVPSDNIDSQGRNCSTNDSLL
# Calb FLC: affects C. albicans growth with fluconazole. C. albicans CaCi-2 (fluconazole-resistant clinical isolate) + fluconazole, Alamar Blue growth, 48 h. growth inhibition, % (no concentration beside the values). hit rate 0.57% among 300,000;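 active means most replicates above 75%; inconclusive means exactly half above 75%; inactive means most below 75%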;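 further: all wells also contain fluconazole at 8 µg/ml as a sub-toxic cotreatment; 0% = median of DMSO wells and 100% = median of geldanamycin control wells; wells of about 8 µL received 7.5 nL stock; the first replicate is given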
# Vif TR-FRET: inhibitors of Vif binding to APOBEC3G peptide, primary screen, biochemical, TR-FRET, GST-Vif 1-94, biotin-A3G peptide, dose response retest (AID 1117319); hit rate 0.57% among 260,000; inhibition, %; hits with a dose series show IC50 in µM; TR-FRET GST-Vif / biotin-A3G peptide binding; higher % means a stronger effect; test concentration not given here; strong numbers were not always called active;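 active means above the screen mean plus three standard deviations and confirmed in dose response; inconclusive means results disagree or hit not tested in dose response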;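 further: Vif residues 1-94 fused to GST binding biotinylated APOBEC3G peptide 110-148; 0% = full assay without inhibitor and 100% = GST in place of GST-Vif; retest series ran down from 100 µM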
# HNF4A DNA FP: change in binding of human HNF4 alpha to DNA | P41235 | HNF4a-FITC DNA binding, fluorescence polarization, 1 h | activity change, % at 10 µM | hit rate 0.3% among 360,000 | AID 1224865; in the data active means activity change above about 30%, passing the limit was not always enough;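 further: controls were the assay level and a saturating level of protein; the project sought stronger binding though the title names inhibitors; some compounds called inactive have numbers as strong as hits; positive values seem to mean higher polarization but the record does not say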
# Target sequence (P41235 whole entry, looked up): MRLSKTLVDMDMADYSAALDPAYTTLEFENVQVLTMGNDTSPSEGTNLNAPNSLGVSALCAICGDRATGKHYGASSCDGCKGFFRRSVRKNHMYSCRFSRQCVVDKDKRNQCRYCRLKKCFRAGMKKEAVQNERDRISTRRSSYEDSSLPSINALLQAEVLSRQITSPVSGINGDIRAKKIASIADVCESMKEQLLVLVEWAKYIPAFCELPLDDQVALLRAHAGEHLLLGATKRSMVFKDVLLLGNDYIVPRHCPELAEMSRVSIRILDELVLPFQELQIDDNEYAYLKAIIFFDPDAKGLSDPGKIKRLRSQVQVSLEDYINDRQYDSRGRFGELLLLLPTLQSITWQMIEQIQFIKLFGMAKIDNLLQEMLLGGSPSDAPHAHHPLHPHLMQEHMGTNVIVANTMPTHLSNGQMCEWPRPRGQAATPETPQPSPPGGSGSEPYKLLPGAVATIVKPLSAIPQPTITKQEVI
# LANA-H2A inh: blocks KSHV LANA binding to histone H2A/H2B. Q9QR71. cell-free LANA-H2A/H2B peptide, fluorescence polarization. inhibition, % (test concentration not listed). hit rate 0.6% among 320,000; in the data active means inhibition mostly above about 10%, no sharp cut-off; inactive means mostly below about 6.7%;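 further: stock transfer was 7.5 nL into about 10 µL; 0% = median of vehicle wells and 100% = median of positive control wells; one replicate is shown; the record names a cut of 25% in any replicate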
# RanGTP-Imp inh: disruptors of Ran-importin-beta complex formation – biochemical, FRET, CFP-Ran, YFP-importin-beta, homogeneous, primary screen. cell-free CFP-Ran/YFP-importin-beta FRET ratio. inhibition, % (concentration not given with the values). hit rate 1.1% among 300,000;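 active means most replicates above 15%; inconclusive means exactly half above 15%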;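 further: 0% = DMSO wells and 100% = Ran loaded with GDP instead of GTP; wells of about 40 µL received 100 nL stock; the first replicate is given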
# ALR H2O2 inh: blocks human ALR sulfhydryl oxidase activity; P55789; purified ALR, DTT oxidation, H2O2 HRP-luminol luminescence; inhibition, % (test concentration not listed); hit rate 3.8% among 290,000; AID 485317;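 active means mean and each replicate at 75% or more; inconclusive means only one of the two met; inactive means neither met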;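 further: stock transfer was 7.5 nL into about 7.5 µL; 0% = neutral wells and 100% = wells with inactivated enzyme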
# Target sequence (P55789 whole entry, looked up): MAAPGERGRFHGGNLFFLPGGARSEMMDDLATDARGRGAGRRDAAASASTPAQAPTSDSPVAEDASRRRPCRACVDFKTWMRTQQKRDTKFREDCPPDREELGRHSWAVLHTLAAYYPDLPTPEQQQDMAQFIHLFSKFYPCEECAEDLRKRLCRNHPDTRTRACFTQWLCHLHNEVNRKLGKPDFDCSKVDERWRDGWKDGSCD
# * = called active by the depositor; ? = inconclusive; nt = not tested or not shown.
SMILES,Beta2AR agonist,Calb FLC,Vif TR-FRET,HNF4A DNA FP,LANA-H2A inh,RanGTP-Imp inh,ALR H2O2 inh
Cc1ccc(C(=O)COC(=O)CCN2C(=O)C3C4CC(C(Br)C4Br)C3C2=O)cc1 (stereo not given),-3,-3,18%,-2.0,-1.7,0.9,-31
CC1CCN(C(=O)c2cc3nc(C4CC4)cc(C(F)(F)F)n3n2)CC1,-2,-6,5%,5.0,0.1,-2.0,-1
Cc1cc(C)n2nc(SCC(=O)Nc3ccccc3F)nc2n1,-5,nt,-3%,-0.5,-3.6,nt,0
Cc1ccc(Cn2cc(/C=N/NC(=O)Cc3nnc(NC(=O)c4ccc(C)cc4)s3)c3ccccc32)cc1,24,4,nt,-0.8,-2.5,-1.5,6
COc1ccc(C)cc1C(=O)CCC(=O)NC1CCCCC1,3,-31,1%,-0.1,-0.4,-1.6,3
CCCc1nn(C)c(C(=O)Nc2ccc(C)c(C)c2)c1Cl,0,-4,5%,0.9,0.1,-1.5,-3
COc1ccccc1C1(O)CCN(CC(=O)Nc2c(C)nn(C)c2C)CC1,-7,-16,1%,2.6,-6.1,-3.7,-1
CO/N=C/Cc1c([N+](=O)[O-])c(C)nn1C,6,-3,nt,2.2,-1.8,-3.5,-3
Brc1nc(Br)n(Cc2ccccc2)n1,-10,3,-7%,-0.6,0.8,-3.9,-1
Cc1cc(NC(=O)CCC(=O)N(c2cccc(F)c2)C(C(=O)NC2CCCC2)c2ccncc2)no1 (stereo not given),-7,0,-4%,-2.1,-2.6,-0.5,0
CCNc1nc(NCC)nc(Oc2ccc(OCC)nn2)n1,-2,5,6%,-1.8,-2.4,2.9,2
CCc1ccc2[nH]c3nc(SCc4nnc(-c5ccccc5)o4)nnc3c2c1,-2,5,18%,1.4,2.2,-2.5,-2
CN(C)/C=C(/C(=O)c1ccc(Cl)cc1)S(=O)(=O)c1ccc(Cl)cc1,5,30,-2%,2.7,-2.5,-2.9,-8
CC(=O)Nc1ccc(NC(=O)c2ccnn2C)cc1,4,-8,nt,0.3,-5.6,1.9,-3
Cc1ccc(S(=O)(=O)NCC(=O)OCC(=O)NCc2ccc(F)cc2)cc1,0,-31,nt,2.5,2.4,2.0,-23
O=C(CN1CCCCCC1)NN(Cc1ccccc1)c1ccccc1,-54,-2,nt,-2.6,-1.0,-2.3,12
O=C(C=CC(=O)OC1CCCCC1)OC1CCCCC1,4,nt,-9%,-5.4,nt,nt,nt
CCC1(C(N)=O)CC2C=CC1C2 (stereo not given),6,nt,47%,0.1,nt,nt,nt
COc1ccc(C(=O)Oc2ccc(C(=S)N3CCCC3)cc2)cc1OC,nt,27,-2%,nt,4.0,2.1,-4
CC(C)(C)c1ccc(C(=O)NCCC(=O)N2CCCC2)cc1,-5,-7,nt,-0.2,-3.0,5.3,1
Cc1c(NS(=O)(=O)c2cccs2)cccc1-c1nc2cccnc2s1,0,10,-1%,2.5,-0.8,-4.1,-5
C=CCNC(=S)N1CCC(C(=O)c2ccc(C)cc2)CC1,16,-10,1%,0.4,0.0,0.5,nt
CNc1nc(N)c([N+](=O)[O-])c(Nc2cccc(Cl)c2)n1,1,18,0%,3.4,-0.5,3.4,nt
Cc1nc(CNS(=O)(=O)c2cccc(F)c2)cs1,-1,1,nt,-3.5,1.4,?,-15
CC1=CC(C)[C@H](/C=N/n2c(=O)[nH]c3c([nH]c4ccc(C)cc43)c2=O)C(C)C1 (stereo not given in full),6,-3,nt,2.3,-1.6,-0.4,6

# (continued)
SMILES,Beta2AR agonist,Calb FLC,Vif TR-FRET,HNF4A DNA FP,LANA-H2A inh,RanGTP-Imp inh,ALR H2O2 inh
CCc1ccc(C(=O)NNC(=O)C2CC(=O)N(Cc3ccccc3)C2)cc1 (stereo not given),-13,-2,5%,-0.9,-21,1.8,-2
CSCCC(NS(=O)(=O)/C=C/c1ccccc1)C(=O)O (stereo not given),5,-4,0%,-2.9,-1.3,-0.4,-2
NC(=Nc1ccccc1)Nc1ccccc1,-15,-13,1%,-1.7,-1.8,-1.3,-2
OCCCc1cn(Cc2ccccc2)c2ccccc12,-4,-15,nt,-2.5,5.0,-3.8,0
COc1ccc(CNC(=O)CCCCCNc2nc(=S)[nH]c3ccccc23)cc1,129*,8,-12%,2.1,0.3,0.3,19
CN(Cc1nc(-c2ccc(Cl)cc2)no1)C(=O)c1ccc2c(c1)OCO2,-7,1,-4%,-2.0,nt,2.2,nt
O=C(COC(=O)c1cc([N+](=O)[O-])ccc1NCCO)c1ccc(Cl)cc1,-7,8,6%,-0.4,-0.6,-1.7,-6
COc1ccccc1C(=O)COC(=O)Cn1[nH]c(=O)c2ccccc2c1=O,0,2,2%,0.3,-3.6,?,-8
CCOC(=O)N1CCC(c2cc(=O)n3[nH]cc(C(=O)OC)c3n2)CC1,-7,9,1%,3.0,0.3,6.9,1
C=CCc1cccc2cc(C(=O)NNC(=O)CC#N)c(=O)oc12,4,6,nt,-2.8,-3.4,3.1,nt
CCC(C)NC(=O)CN(c1cc(C)ccc1OC)S(C)(=O)=O (stereo not given),6,1,-3%,-0.2,-1.1,6.4,2
O=C(NCCNc1ccccc1[N+](=O)[O-])c1cc(F)c(F)cc1Cl,10,13,nt,3.1,-0.9,-1.9,nt
CC(=O)c1c(C)n(CCO)c2ccc(O)cc12,9,1,3%,3.9,-3.6,-0.7,6
O=C(COC(=O)[C@@H]1CC(O)CN1S(=O)(=O)c1ccccc1[N+](=O)[O-])Nc1ccc2ccccc2c1 (stereo not given in full),2,2,?,4.8,0.0,3.6,-10
CN1CCc2nc3sc(C(=O)NCc4ccccc4)c(N)c3cc2C1,7,19,17%,-4.8,1.7,nt,-15
C/C(CC(=O)Nc1ccc2c(c1)OCCO2)=N\NC(=O)COc1ccc(Cl)c(C)c1,-4,-23,nt,1.6,-1.6,4.0,0
Cc1c(C)c2ccc(OCC(=O)NC(Cc3c[nH]c4ccc(O)cc34)C(=O)O)c(C)c2oc1=O (stereo not given),-1,-1,nt,8.9,1.5,3.8,nt
Cc1cc(NC(=O)COC(=O)C2CC(=O)N(c3cccc(Cl)c3)C2)no1 (stereo not given),0,4,3%,-1.2,-0.3,2.1,-4
COc1cccc(N2C(=O)Nc3ccc(Br)cc3C2(O)C(=O)NCCCOC(C)C)c1 (stereo not given),5,2,2%,0.9,2.7,-5.5,-23
O=C(CCc1ccccc1)Nc1ccc(NC(=O)C2CCCCC2)nc1,1,18,nt,-3.4,-8.3,0.0,-13
CCOC(=O)c1ccc2ncc(C(=O)OCC)c(NCCN(C)C)c2c1,0,4,nt,-57,-6.8,2.5,-10
Oc1c(Br)cc(Br)cc1/C=N/NC(=S)N[C@H]1CC2C=CC1C2 (stereo not given in full),6,-8,nt,9.2,-5.6,-1.5,0
COc1ccc(NC(=O)c2ccccc2[N+](=O)[O-])cc1OC,9,15,8%,-2.8,-0.9,0.3,-3
CCOc1ccc(NS(=O)(=O)c2cc(Cl)ccc2OC)cc1,-5,-5,9%,-3.6,1.9,-1.3,1
CC(=O)NCCn1c(SCC(=O)c2ccc(Cl)cc2)nc2ccccc2c1=O,-7,-4,-3%,2.7,2.3,-1.3,0

# Continuation:
SMILES,Beta2AR agonist,Calb FLC,Vif TR-FRET,HNF4A DNA FP,LANA-H2A inh,RanGTP-Imp inh,ALR H2O2 inh
CN(C)CCNC(=O)Nc1cccc(Cl)c1Cl,1,nt,16%,-0.2,-3.6,2.5,-3
O=C(N/N=C1\CCCc2oc(C(=O)O)cc21)c1ccccc1,-5,30,13%,-2.5,-0.2,7.4,4
CSc1nc2sc3c(c2c2nncn12)CCC3,-11,0,5%,0.2,-0.8,-2.2,-9
O=P(O)(CP(=O)(c1ccccc1)c1ccccc1)c1ccccc1,2,1,5%,2.6,2.9,8.6,-6
Cc1ccc(NC(=S)N(CCCN2CCOCC2)Cc2ccco2)cc1,-1,-14,-1%,-1.3,6.2,-4.5,-7
COc1cc(C2c3c(-c4cc(Cl)c(C)cc4O)n[nH]c3C(=O)N2Cc2cccnc2)ccc1O (stereo not given),-13,5,1%,3.0,-2.2,1.0,10
O=Cc1c(SCCO)nc2ccccn2c1=O,3,0,1%,-3.6,-0.8,-0.4,-10
O=C(CCN1CCN(c2ccccc2)CC1)c1ccc(Br)cc1,-1,20,-8%,-1.9,-1.6,0.1,70
COc1ccc(-n2ccn(CC(=O)Nc3ccccc3OC)c(=O)c2=O)cc1,11,0,-11%,-0.4,-2.5,7.7,-1
O=C(CCN1C(=O)C2C3C=CC(C3)C2C1=O)NCCc1ccccc1Cl (stereo not given),-5,-10,-1%,-2.9,4.2,-3.4,1
O=C(NC(=O)c1cccc(OC(F)(F)C(F)F)c1)OC1CCS(=O)(=O)C1 (stereo not given),5,43,-4%,2.2,1.0,-4.6,-5
CCCC(=O)N1CCN(c2nc3ccccc3s2)CC1,4,-4,-2%,2.7,0.1,2.1,0
CCc1ccc(C2=NN(CCC(=O)NC(C)CCc3ccccc3)C(=O)CC2)cc1 (stereo not given),5,-5,-5%,4.3,-1.8,-1.5,-2
O=[N+]([O-])c1cccc(S(=O)(=O)NCc2ccncc2)c1,-3,-4,nt,8.0,4.3,-2.0,nt
Cc1nnc(Nc2ccccc2F)s1,-7,-3,?,-1.4,-2.2,2.6,-14
O=C(CSc1ccccc1)Nc1nnc(COc2ccc(Cl)cc2)s1,-2,-21,2%,5.5,-1.7,-0.4,15
CCCn1c(N)c(C(=O)CN(C)CC(=O)Nc2cccc(F)c2)c(=O)[nH]c1=O,0,nt,-11%,1.6,-1.0,nt,1
CCOc1ccc(C(=O)/C=C/c2ccc(SC)cc2)cc1,-3,5,3%,2.0,-1.4,-14,3
CC(=O)c1c(NCCc2ccccc2)cc(C)oc1=O,12,-3,5%,-3.1,-1.0,0.5,-19
OCCNc1nc(NCc2ccccc2)c2ccccc2n1,8,-3,0%,-1.0,-0.6,1.4,nt
CCN(Cc1ccccc1)C(=O)CN1C(=O)COc2ccc(S(=O)(=O)N3CCCCCC3)cc21,8,-10,-2%,1.8,-1.8,2.1,-6
O=C(N[C@@H](Cc1c[nH]c2ccccc12)C(=O)O)C1CCN(S(=O)(=O)c2ccc(Cl)cc2)CC1,12,1,nt,5.4,9.9,-0.9,-20
Cc1ccc(Nc2ccccc2N)cc1,-52,26,?,25,1.2,-9.5,86*
CCC1(C)Cc2ccccc2-c2nc3n(c(=O)c21)CCCCC3 (stereo not given),-3,-9,2%,-1.7,nt,4.3,nt
Cc1ccc(C)c(NC(=O)Cc2nc(CCl)cs2)c1,2,-18,?,1.7,-5.4,5.0,-18

# (listing goes on)
SMILES,Beta2AR agonist,Calb FLC,Vif TR-FRET,HNF4A DNA FP,LANA-H2A inh,RanGTP-Imp inh,ALR H2O2 inh
Cc1nc(C)c(C(=O)NNS(=O)(=O)c2ccc3ccccc3c2)s1,-7,-16,9%,-1.9,2.9,7.2,37
O=C(Nc1ccc(Br)cc1)C1CCCN1S(=O)(=O)c1cccs1 (stereo not given),-6,7,4%,3.2,-4.4,3.2,-1
CCn1c(SCC(N)=O)nc2cc(S(=O)(=O)N3CCOCC3)ccc21,-2,-10,-2%,4.3,10,0.6,-6
COC(=O)c1ccc(OCC(O)CN(CC(C)C)CC(C)C)cc1 (stereo not given),8,-12,4%,0.5,-2.5,-0.5,-12
CCCNC(=O)c1oc2ccc3c(c2c1C)C(O)CC(C)(C)O3 (stereo not given),4,7,-6%,-2.2,-2.6,0.1,-23
CC(C)Oc1ccc(CCC(=O)N/N=C/c2ccncc2)cc1,16,-4,nt,1.3,-3.6,1.2,-2
CC(CCc1ccc(O)cc1)NC1C2CC3CC(C2)CC1C3 (stereo not given),-7,-6,nt,0.4,-1.0,-2.7,nt

# Rows were taken by chance. About 6.3% of those tested had a hit in this group.
